# Screens: PubChem BioAssay, ICCB-Longwood Screening Facility, Harvard Medical School
# S aureus helic: S. aureus DNA helicase inhibition; purified S. aureus helicase, fluorescence unwinding assay; about half of the hits fall short of the stated cut; inhibition, %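 (tested at about 80 µM)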; AID 485395; 0.05% of 120,000 active;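 active = both duplicates at 50% or more, or one of them with a favoured structure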;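 also: 0% = mean of negative control wells and 100% = mean of positive control wells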
# MgrA DNA FP: S. aureus MgrA-DNA binding modulation. 0.13% of 84,000 active. inhibition, %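 (about 10 µg/mL by stock and volumes)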. fluorescence polarization;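 active = above 50% in either of two replicates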;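 also: 0% = protein plus DNA without compound and 100% = DNA alone without protein; higher means less MgrA bound to DNA so lower polarization; one replicate is shown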
# * = called active by the depositor; . = not tested or not shown. A portion of the library; rates above refer to the full screens.
SMILES,S aureus helic,MgrA DNA FP
CCN(Cc1ccc(OC)c(F)c1)c1nc(C(F)(F)F)nc2ccccc12,7,.
Cc1nc(NC(=O)c2ccc(F)cc2)nc2cc3c(cc12)OCO3,-2,2.8
c1cncc(N=c2scc(-c3cccs3)n2CCCn2ccnc2)c1,7,.
CCOC(=O)Cc1nn(Cc2nc(-c3ccccc3)cs2)c(=O)c2ccccc12,.,-1.7
NC(=O)C1CCN(C(=O)Nc2cc3ccccc3s2)CC1,.,-0.7
O=C(NCCc1ccccc1F)c1ccc2ccccc2c1,8,-1.3
O=C(CN(c1ccc2c(c1)OCCO2)S(=O)(=O)c1ccccc1)NC1CC1,9,-2.9
Cc1cc2nc(NC3CCS(=O)(=O)C3)c3ccccc3n2n1 (stereo not drawn),10,.
N=c1oc2ccc3ccccc3c2cc1-c1nnc2n1CCCCC2,-3,.
Cn1c(O)c(N=Nc2ccc(C(F)(F)F)cc2)c(=O)n(C)c1=O,4,.
CC(NC(=O)C1CCN(C(=O)c2cc3sccc3n2Cc2ccc(F)cc2)CC1)c1ccccc1 (stereo not drawn),13,1.4
Cc1ccc(CC23CN4CCN(CC(C4)C2O)C3)c(C)c1 (stereo not drawn),9,.
O=C(c1ccco1)c1coc2ccc(O)cc12,.,2.3
Cc1cccc(-c2nc3cc(NC(=O)c4cccc(F)c4)ccc3o2)c1,25,.
COc1ccc(C2=NN(C(=O)c3cc([N+](=O)[O-])c(N4CCOCC4)c([N+](=O)[O-])c3)C(c3cccc([N+](=O)[O-])c3)C2)cc1 (stereo not drawn),.,-0.8
N#Cc1c(F)cccc1NC(=O)COCC(=O)O,.,-2.2
CC(C)Sc1ccc2nnc(-c3ccccn3)n2n1,1,-1.7
Cc1ccc(-n2nc(C)c3c(C)c(CCC(=O)NC(C)c4ccc5c(c4)OCCO5)c(C)nc32)cc1 (stereo not drawn),3,-0.5
COc1ccc(C(=O)N2CCn3c2nc2ccccc23)cc1OC,27,.
CCCSc1nnc2c(n1)OC(C)(C)Nc1ccccc1-2,-4,2.5
Fc1ccc(Oc2nc(Oc3ccc(F)cc3)nc(N3CCSCC3)n2)cc1,3,.
CCc1cccc(NC(=O)CCS(=O)(=O)c2ccc3c(c2)SCC(=O)N3)c1,6,0.8
N#CC(C#N)=C(N)COc1cccc(Cl)c1,.,2.8
CC(C)=C1C(=O)N(c2ccccc2)C(=S)N1c1ccccc1,9,-4.5
CC1=C(C#N)C(c2ccc(N(C)C)cc2)C(C(=O)Nc2ccccc2)=C(C)N1 (stereo not drawn),-23,-0.2
O=C(C1CC(c2ccccc2F)=NO1)N1CCCCCC1 (stereo not drawn),-4,.
COc1ccc(/C=C/C(=O)N2CCN(c3ccccc3)CC2)cc1OC,6,-0.3
CCc1ccc(NC(=S)N2CCC(N(C)C(C)C)CC2)cc1,3,2.7
Cc1nc(-c2ccc(NC(=O)COCC(=O)O)cc2)cs1,.,0.2
CC(C)(C)C(=O)NC(Sc1nccc(=O)[nH]1)=C(Cl)Cl,18,.
CCn1c(SCC(N)=O)nnc1-c1sc2cc(Cl)ccc2c1Cl,-22,.
COCc1nc2ccccc2n1Cc1cccc2ccccc12,19,-3.1
O=c1cc[nH]c2c1ccc1c(O)ccnc12,-25,.
NC(=O)CCc1nc(-c2ccccc2)no1,-4,-1.1
On1onc2c3cc(-c4ccccc4)nc3ccc21,8,-2.3
O=c1[nH]ccc2c1c(=O)[nH]c1ccccc12,-11,.
CCCCOC(=O)c1cc(-c2ccc(C=C3C(=O)NC(=S)NC3=O)o2)ccc1Cl,.,2.2
Cc1nc2ccccc2nc1SCC(=O)N1CCCCC1,-2,.
CCN1C2OC3OC4C(OC3OC2N(CC)S1(=O)=O)N(CC)S(=O)(=O)N4CC (stereo not drawn),15,-1.2
O=C(O)COCC(=O)Nc1cc(C(F)(F)F)cc(C(F)(F)F)c1,.,-2.7
CCOC(=O)c1c(NC(=O)c2cccc(Cl)c2)sc(C(=O)Nc2ccc(OC)cc2OC)c1C,.,0.3
CC(=O)NS(=O)(=O)c1ccc(-c2ccc(/C=C3/C(=O)N(CCCO)C(=O)C(C#N)=C3C)o2)cc1,2,32
CN(C)c1cncc(C(=O)O)c1,3,.
COc1ccc(Nc2nnc(SCC(=O)c3cc(C)n(-c4nccs4)c3C)s2)cc1,4,.
N#C/C(=C\N1CCOCC1)S(=O)(=O)c1ccc(Cl)cc1,.,-0.1
Cc1ccc(NC(=O)CC2NC3CCCCC3NC2=O)cc1C (stereo not drawn),41,.
CN=c1scc(C)n1NC(=O)Nc1ccc(Cl)cc1,.,-1.4
O=c1c2ccccc2ncn1CCOc1ccc(Br)cc1,12,.
O/N=C(/C(=N/O)c1ccco1)c1ccco1,0,.
COC(=O)CN1C(=O)/C(=C/c2ccc(OCc3ccccc3)c(OC)c2)SC1=S,0,9.8

# Copied from the listing (19 entries):
SMILES,S aureus helic,MgrA DNA FP
CC(C)(C)C(=O)NC(Sc1nccc(=O)[nH]1)=C(Cl)Cl,18,.
CCn1c(SCC(N)=O)nnc1-c1sc2cc(Cl)ccc2c1Cl,-22,.
COCc1nc2ccccc2n1Cc1cccc2ccccc12,19,-3.1
O=c1cc[nH]c2c1ccc1c(O)ccnc12,-25,.
NC(=O)CCc1nc(-c2ccccc2)no1,-4,-1.1
On1onc2c3cc(-c4ccccc4)nc3ccc21,8,-2.3
O=c1[nH]ccc2c1c(=O)[nH]c1ccccc12,-11,.
CCCCOC(=O)c1cc(-c2ccc(C=C3C(=O)NC(=S)NC3=O)o2)ccc1Cl,.,2.2
Cc1nc2ccccc2nc1SCC(=O)N1CCCCC1,-2,.
CCN1C2OC3OC4C(OC3OC2N(CC)S1(=O)=O)N(CC)S(=O)(=O)N4CC (stereo not drawn),15,-1.2
O=C(O)COCC(=O)Nc1cc(C(F)(F)F)cc(C(F)(F)F)c1,.,-2.7
CCOC(=O)c1c(NC(=O)c2cccc(Cl)c2)sc(C(=O)Nc2ccc(OC)cc2OC)c1C,.,0.3
CC(=O)NS(=O)(=O)c1ccc(-c2ccc(/C=C3/C(=O)N(CCCO)C(=O)C(C#N)=C3C)o2)cc1,2,32
CN(C)c1cncc(C(=O)O)c1,3,.
COc1ccc(Nc2nnc(SCC(=O)c3cc(C)n(-c4nccs4)c3C)s2)cc1,4,.
N#C/C(=C\N1CCOCC1)S(=O)(=O)c1ccc(Cl)cc1,.,-0.1
Cc1ccc(NC(=O)CC2NC3CCCCC3NC2=O)cc1C (stereo not drawn),41,.
CN=c1scc(C)n1NC(=O)Nc1ccc(Cl)cc1,.,-1.4
O=c1c2ccccc2ncn1CCOc1ccc(Br)cc1,12,.

# Additional records follow.
SMILES,S aureus helic,MgrA DNA FP
CCc1ccc(NC(=O)N(Cc2ccc3c(c2)OCO3)C2CCN(CC)CC2)cc1,25,.
O=C(CNc1ccc(F)cc1F)Nc1ccc2c(c1)OC(F)(F)O2,4,.
CSc1nnc2c(n1)OC(c1cc3c(cc1Br)OCO3)Nc1ccccc1-2 (stereo not drawn),.,-2.4
CC(C)SC1=NSC2=NC(=O)/C(=C\c3ccc(-c4cccc(C(=O)O)c4)o3)C(=N)N21,41,.
CCOC(=O)/C(C#N)=C/Nc1nc2ccccc2nc1N1CCOCC1,-1,.
Cc1ccc(CNC(=O)C2CCC(=O)N2C2CCCCC2)cc1 (stereo not drawn),21,.
COc1ccc(-c2nnc3ccc(SCC(=O)NCCc4ccccc4)nn23)cc1OC,9,.
CCSCCOC(=O)C1=C(C)N(C)C(=O)NC1c1cc(Br)c(O)c(OC)c1 (stereo not drawn),.,-1.4
COc1ccc(Cl)cc1S(=O)(=O)NCCSCc1ccco1,.,-0.8
C#CCn1cc(/C=C(/C#N)C(=O)Nc2ccccc2)c2ccccc21,-4,0.8
COC(=O)/C(C#N)=C/c1ccc(C)s1,0,-2.1
CC1CCCCC1NC(=O)NC(=O)CSc1nnnn1-c1ccc(Cl)cc1 (stereo not drawn),-5,.
COc1ccc(C(=O)CN2CCc3ccccc32)cc1,5,1.2
O=C(Nc1ccc(Br)cn1)c1sc2ccccc2c1Cl,.,1.2
CCCCn1c2c(c(=O)[nH]c1=O)C(c1ccc(OC(F)F)cc1)C1=C(CCCC1=O)N2 (stereo not drawn),9,.
CCOc1ccc(NC(=O)CCCn2c(=O)[nH]c3ccccc3c2=O)cc1,-1,.
COc1cccc(-c2nc(COC(=O)C3=COCCO3)cs2)c1OC,4,.
Nn1c(SCc2cn3ccccc3n2)nnc1C1CC1,12,.
CCNC(=O)C(C#N)=C1CCCCCC1,-16,.
COC(=O)c1sccc1N/C=C(\C#N)S(=O)(=O)C(C)(C)C,.,-1.8
Cc1ccc(CC(=O)Nc2ccc3nc(N4CCN(c5ncccn5)CC4)cc(C)c3c2)cc1,10,.
O=C(NCc1cccnc1)c1csc2ccccc12,13,-0.5
CCCC(C(=O)Nc1ccccc1F)N1Cc2ccccc2C1=O (stereo not drawn),11,.
CC1Oc2ccccc2N(CC(=O)NCc2ccccc2)C1=O (stereo not drawn),16,-0.2
Cc1ccc(N2C(=O)C(Cc3ccccc3)N=C2N(CCN(C)C)Cc2ccco2)c(C)c1 (stereo not drawn),15,.
CCOC(=O)c1ccc2nc(-n3cccc3)sc2c1,.,0.0
CCN(CC)CC(=O)NC1(C)CCCCC1c1ccc(O)cc1 (stereo not drawn),3,-0.9
FC(F)(F)c1ccc(-c2csc(-c3ccno3)n2)cc1,.,0.5
CC1=C(C(=O)OCC2CCCO2)C(c2cccc(OCc3ccccc3)c2)NC(=O)N1 (stereo not drawn),.,-2.9
N#Cc1ccccc1N=Cc1ccccc1O,4,-0.9
O=C(O)C1CCN(S(=O)(=O)c2cccc3cccnc23)CC1,-24,.
O=C1CCCC2=C1C(c1ccncc1)n1c(nc3ccccc31)N2 (stereo not drawn),-10,1.1
Cc1ccccc1C(=O)c1cccn1CC(=O)NC(C)c1ccc2c(c1)OCCO2 (stereo not drawn),8,0.6
O=C1c2ccccc2C(=O)N1CCCn1c(=O)oc2ccccc21,1,0.5
N=C1C(c2nc3ccccc3[nH]2)=C(O)CN1C1CCCC1,23,.
COc1ccc(Oc2ncccc2NC(=O)c2cc(C(F)(F)F)cc(C(F)(F)F)c2)cc1,.,-0.2
CCc1ccc(NC(=S)N(Cc2cccnc2)Cc2ccco2)cc1,15,.
O=C(CSc1ccccc1Cl)NCc1ccccc1Cl,-16,1.5
CCc1cc2c3c(c(=O)oc2cc1OCC(=O)OC(C)(C)C)CCCC3,1,1.5
N/C(=N\OC(=O)Nc1ccccc1)c1ccc2nonc2c1,-19,.
O=C(CCCN1C(=O)c2cccc3cccc(c23)C1=O)Nc1nc(-c2ccc(F)cc2)cs1,.,-0.8
Cc1cc(SCCOc2ccccc2)nc(N)n1,16,-1.5
CC(C)NCC(O)COc1ccc(COCCOC(C)C)cc1 (stereo not drawn),.,4.2
O=C(N/N=C/c1ccccc1O)C12CC3CC(CC(C3)C1)C2,-27,.
CN(C)Cc1cc(CCNC(=O)c2ccc(Cl)cc2)ccc1O,17,.
COC(=O)c1c(C)oc(C)c1S(=O)(=O)Nc1ccc(C(C)C)cc1,.,0.7
COc1cccc(/C=N/n2c(N)nc3ccccc32)c1OC,0,1.2
CCc1cccc(NCC(O)Cn2nnnc2-c2ccccc2)c1 (stereo not drawn),3,-0.4
COCCN(C(=O)C1CC1)c1nnc(-c2cccc(C)c2)s1,-4,-0.2
O=C1CN(c2nc(-c3ccccc3)c3ccccc3n2)c2ccccc2N1,.,-1.5

# The list goes on, starting with the last two of the part before.
SMILES,S aureus helic,MgrA DNA FP
COCCN(C(=O)C1CC1)c1nnc(-c2cccc(C)c2)s1,-4,-0.2
O=C1CN(c2nc(-c3ccccc3)c3ccccc3n2)c2ccccc2N1,.,-1.5
Cc1cccn2c(=O)c3cc(C(=O)NC(C)c4ccccc4)c(=N)n(CC4CCCO4)c3nc12 (stereo not drawn),1,2.6
CCOc1ccccc1C(=O)Nc1ccc(-c2ccc3nncn3n2)cc1,0,.
O=C(COc1ccccc1Br)N1CCCCC1,11,0.7
Cc1ccc2[nH]c(C)c(CCN(Cc3ccco3)C(=S)Nc3cccc(C)c3C)c2c1,9,1.8
O=c1n(Cc2cccc(C(F)(F)F)c2)nnn1-c1ccccc1,-7,.
O=S(=O)(NCc1csc(-c2cccs2)n1)c1ccccc1,.,-1.2
CCC1CN(Cc2ccccc2)CCC1=O (stereo not drawn),6,-0.5
COC(=O)C1=C(C)NC(C)=C(C(=O)OC)C1c1cc2ccc(OC)cc2[nH]c1=O,2,1.1
Cc1cccc2cc(CN(C(=O)C(F)(F)F)C3CCCC3)c3nnnn3c12,0,-1.4
CC(C)(C)C(=O)C(C#N)=C1SCCCS1,.,0.6
COC(=O)c1cc(-c2ccccc2)sc1N,1,1.7
CCOC(=O)Cc1csc(SCC(=O)Nc2cccc(C#N)c2)n1,-7,.
O=c1[nH][nH]c2ccccc2c1=O,-13,.
O=c1cc(CSc2nnc(N3CCOCC3)n2-c2cccc(F)c2)nc2sc3c(n12)CCCC3,6,.
COc1ccc(CNC(=O)CCCn2ncc3ccc(C)cc32)cc1,16,.
CN(C)c1ccc(NC(=O)CSc2nc3ccccc3c(=O)n2CC2COc3ccccc3O2)cc1 (stereo not drawn),0,.
Cc1cc(-c2ccccc2C(=O)NC2CCCCC2)on1,.,-1.7
COC(=O)c1ccccc1N=Nc1c(N)[nH][nH]c1=O,8,.
CCN(CC)C(=O)CSc1nc(-c2ccccc2)cn1N,11,.
O=C(Nc1ccc(Cl)cc1Cl)c1cccnc1SCCS(=O)(=O)c1ccccc1,.,-0.9
O=C(CSc1nc2ccccc2[nH]1)N1CCc2ccccc2C1,-19,-1.1
O/N=C1/CCN(Cc2ccccc2)C1,.,-0.6
Cc1cccc(NCc2ccc(N(C)C)cc2)n1,-2,0.4
CCOC(=O)c1nccn1CC(=O)N(CC)c1cccc(C)c1,1,.
Cc1sc2nc3n(c(=O)c2c1C)CCCS3,12,-1.1
CN(c1ccccc1)S(=O)(=O)c1cccc(C(=O)c2c(N)n(C)c(=O)[nH]c2=O)c1,-4,.
CN(CC(=O)O)C1=NS(=O)(=O)c2ccccc21,25,.
S=c1sc(Nc2cc(Cl)ccc2Cl)nn1-c1ccccc1,.,-1.6
COc1cc(C(=O)Nc2nccs2)cc(OC)c1C,5,.
